Compound activity from PubChem BioAssay.
KCNQ2 pot: potentiators of rat KCNQ2 potassium channel | O88943 | CHO-K1 KCNQ2, FluxOR thallium flux fluorescence; hits give high values | B-score at 10 µM | 0.54% of 310,000 active | AID 2239;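 active means fluorescence ratio B-score at least 3 SD of library B-scores, with initial fluorescence B-score within 3 SD, cut at about 5.3 in these data; same plate scores as AID 2156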;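 further: B-score of peak minus minimum over baseline fluorescence ratio after K+ and Tl+ stimulus; positive B-score means potentiation of KCNQ2 with more thallium influx and brighter signal; only the inactives scoring about 0 or higher are listed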
Target sequence (O88943 whole entry, looked up): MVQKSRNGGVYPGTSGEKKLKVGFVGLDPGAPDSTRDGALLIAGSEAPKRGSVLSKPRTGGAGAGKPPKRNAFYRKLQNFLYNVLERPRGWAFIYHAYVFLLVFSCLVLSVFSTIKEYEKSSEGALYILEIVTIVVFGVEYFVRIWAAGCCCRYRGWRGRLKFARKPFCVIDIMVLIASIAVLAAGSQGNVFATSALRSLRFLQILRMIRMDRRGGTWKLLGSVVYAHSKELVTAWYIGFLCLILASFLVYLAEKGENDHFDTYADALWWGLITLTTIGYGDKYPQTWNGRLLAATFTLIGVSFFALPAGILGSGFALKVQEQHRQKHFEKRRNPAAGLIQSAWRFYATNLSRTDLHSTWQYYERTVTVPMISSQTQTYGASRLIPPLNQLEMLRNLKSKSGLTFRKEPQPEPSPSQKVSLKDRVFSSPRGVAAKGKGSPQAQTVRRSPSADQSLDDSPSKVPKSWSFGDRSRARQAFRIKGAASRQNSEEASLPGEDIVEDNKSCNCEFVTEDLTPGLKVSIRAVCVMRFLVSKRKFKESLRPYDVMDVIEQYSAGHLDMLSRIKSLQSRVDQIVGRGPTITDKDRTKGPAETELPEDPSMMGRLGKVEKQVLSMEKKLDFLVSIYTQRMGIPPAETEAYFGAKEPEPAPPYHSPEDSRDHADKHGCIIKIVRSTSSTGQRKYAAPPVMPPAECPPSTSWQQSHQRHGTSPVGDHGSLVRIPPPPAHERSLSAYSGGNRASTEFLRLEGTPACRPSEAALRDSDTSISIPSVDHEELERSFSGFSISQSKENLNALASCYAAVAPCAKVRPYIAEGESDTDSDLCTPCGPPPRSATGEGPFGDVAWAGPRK
KCNQ2 pot baseline: recorded beside KCNQ2 pot, whose call it bears; B-score; compound at 10 µM; measured here: initial fluorescence intensity artifact check;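 brightness before thallium and not channel activity; 0 = typical well and far values either way flag optical interference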
* hit, by the source's call. An excerpt (hit frequency here may not be typical).

Screens in order: KCNQ2 pot	KCNQ2 pot baseline
- Cc1cc(N2CCN(S(=O)(=O)c3ccc(Br)cc3)CC2)n2ncnc2n1
  0.53	0.27
- O=C(Nc1nccs1)c1ccc2ccccc2c1
  1.3	-1.4
- Cc1csc(NC(=O)CN2C(=O)c3ccccc3C2=O)c1C(N)=O
  1.2	-0.02
- CNCCCOc1cc(C)cc(C)c1C
  1.1	-0.19
- Cc1cc(NC(=O)c2nn(C)c(C)c2Br)no1
  0.98	0
- CC1CCN(c2nc3c(c(=O)n(C)c(=O)n3C)n2CCSc2ncccn2)CC1
  1.7	-0.12
- CC1=CC(=O)C(C(C)C)=C/C1=C(\c1cc(C(C)C)c(OP(=O)(O)O)cc1C)c1ccccc1C(=O)O
  1.8	0.64
- O=C(CN(C(=O)c1csnn1)c1ccccc1F)NCc1ccc2c(c1)OCO2
  1.8	0.84
- COc1ccccc1C(=O)Nc1ccc2c(C)cc(=O)oc2c1
  1	-3.4
- O=C(Nc1nccs1)c1ccc(Cl)cc1[N+](=O)[O-]
  1.2	0.31
- CCOc1c(S(=O)(=O)N2CCCC2)ccc(Cl)c1Cl
  0.61	0.08
- COc1ccc(OC)c(NC(=O)CCNC(=O)Cn2cnc3ccccc3c2=O)c1
  0.01	-2.4
- O=C(NC1CC1)c1cc2c(s1)CS(=O)(=O)C2
  0.46	-1.2
- CSc1n[nH]c(NC2=CC(=O)CCC2)n1
  0.11	-1.2
- Cc1cc(C(F)F)n2ncc(C(=O)N3CCc4ccccc4C3)c2n1
  0.89	-1.3
- CC(=O)N1c2c(cc(Br)cc2S(=O)(=O)NCc2ccc3c(c2)OCO3)CC1C (stereo not given)
  0.79	-1.1
- COc1cccc(-c2nnc(SCCC(=O)O)n2C)c1
  0.13	-0.76
- FC(F)(F)c1cc(-c2ccco2)nc(NCc2ccco2)n1
  0.17	-0.37
- Nc1nc(-c2ccc(Oc3ccccc3)cc2)cs1
  3.7	0.03
- CC1CCCC(C)N1NC(=O)c1cccc(S(=O)(=O)N2CCc3ccccc32)c1 (stereo not given)
  0.04	0.02
- COc1ccc(-c2nnc(SCC(=O)NCC3CCCO3)o2)cc1 (stereo not given)
  2.1	-0.67
- O=C(NCCc1ccccc1)C1CCCN(S(=O)(=O)c2cccc3nonc23)C1 (stereo not given)
  0.76	-0.03
- COCC(=O)N1CCC(Oc2ccc(C(=O)NC3CCOC(C)(C)C3)cc2)CC1 (stereo not given)
  0.57	1.5
- O=C(c1ccccc1NS(=O)(=O)c1cccc([N+](=O)[O-])c1)N1CCCC1
  0.82	-0.48
- CC(C)CNS(=O)(=O)c1ccc(S(=O)(=O)N2CCCN(Cc3ccccc3)C2)cc1
  0.33	-1
- C=CCNC(=S)N1CCc2c([nH]c3ccccc23)C1C (stereo not given)
  5.2	-0.8
- Cn1c(SCCOc2ccccc2Cl)nnc1-c1ccncc1
  1	-1.1
- COC(=O)N/N=C(\C)c1ccc(OC(F)F)cc1OC(F)F
  0.85	0.03
- COCc1cc(=O)n2[nH]c(-c3cccc(Br)c3)cc2n1
  1.6	-0.48
- CC(=O)N1CCc2ccccc2C1CC(=O)O (stereo not given)
  0.17	0.61
- COCc1nnc(NC(=O)CCSc2ccccc2)s1
  1.7	-0.51
- O=C(Cc1ccc(O)cc1)N/N=C/c1cccs1
  0.48	2.2
- COc1cc(C(=O)NCCC(=O)N2CCC3(CC2)NCCc2[nH]cnc23)cc(OC)c1OC
  0.12	-0.47
- CCOc1ccc(NC(=O)N2CCC(n3c(=O)[nH]c4ccccc43)CC2)cc1
  0.57	-0.17
- CC1CCC(NC(=O)Cn2c(=O)oc3cc(S(=O)(=O)N4CCCC4)ccc32)CC1 (stereo not given)
  0.9	0.92
- NC(N)=NS(=O)(=O)c1ccc(N/C=C\C(=O)c2ccncc2)cc1
  0.19	1.6
- COC(CNC(=O)c1ccc2c(c1)ncn2-c1ccc(F)cc1F)OC
  1.6	-1.3
- Cc1ccccc1C(=O)Nc1cccc(C#N)c1
  0.33	1.7
- Clc1ccc(SCCOCCN2CCCCC2)cc1
  0.71	1.1
- COc1cccc(/C=N/n2c(-c3n[nH]c4c3CCC4)n[nH]c2=S)c1OC
  0.17	0.32

7 entries out of the list above, ordered by their value in KCNQ2 pot, falling:
Screens in order: KCNQ2 pot	KCNQ2 pot baseline
- COc1ccc(-c2nnc(SCC(=O)NCC3CCCO3)o2)cc1 (stereo not given)
  2.1	-0.67
- COCc1cc(=O)n2[nH]c(-c3cccc(Br)c3)cc2n1
  1.6	-0.48
- CC1CCC(NC(=O)Cn2c(=O)oc3cc(S(=O)(=O)N4CCCC4)ccc32)CC1 (stereo not given)
  0.9	0.92
- CC(C)CNS(=O)(=O)c1ccc(S(=O)(=O)N2CCCN(Cc3ccccc3)C2)cc1
  0.33	-1
- NC(N)=NS(=O)(=O)c1ccc(N/C=C\C(=O)c2ccncc2)cc1
  0.19	1.6
- CC(=O)N1CCc2ccccc2C1CC(=O)O (stereo not given)
  0.17	0.61
- COc1cc(C(=O)NCCC(=O)N2CCC3(CC2)NCCc2[nH]cnc23)cc(OC)c1OC
  0.12	-0.47

(list continues)
Screens in order: KCNQ2 pot	KCNQ2 pot baseline
- Cc1c(Cl)c(-c2n[nH]c(=S)n2CC(C)C)nn1C
  0.03	-1.3
- COc1cccc(-c2nc(Oc3cccc(C)c3C)c3ccccc3n2)c1O
  1	2.2
- COc1ccc(S(=O)(=O)N2CCCC(C(=O)NCc3ccccc3)C2)cc1 (stereo not given)
  0.02	1.1
- CN(C)C1(CN=Cc2cc(Cl)cc([N+](=O)[O-])c2O)CCCCC1
  0.44	0
- Cc1ccccc1NS(=O)(=O)c1ccc(OCC(=O)NCc2ccccn2)cc1
  0.03	-0.08
- NC(=O)C1CCN(CC(=O)NC(=O)NC2CCCC2)CC1
  1.2	-1.7
- O=C(NCc1ccncc1)c1nc(-c2ccc(C(F)(F)F)cc2)no1
  3.8	-0.9
- CCOc1cccc2sc(N(CCN(CC)CC)C(=O)c3cccc(N4C(=O)CCC4=O)c3)nc12
  1.1	0.12
- O=C(CCCN1C(=O)c2ccccc2C1=O)Nc1cccc(S(=O)(=O)NC2=NCCC2)c1
  0.04	0.34
- O=C1C(=O)N(CCO)C(c2ccccc2)/C1=C(\O)c1ccccc1 (stereo not given)
  1.1	-0.04
- Cc1c(CCC(=O)O)c(=O)oc2cc(OCc3cccc(F)c3)ccc12
  0.14	-0.06
- C/C(=N\Nc1nc2ccccc2nc1C)c1ccccc1O
  4.3	-1.7
- CCOC(=O)CSc1nc(=O)n2ccc(C)cc2n1
  0.47	2.5
- Cn1c(NC(=O)c2ccc(Cl)s2)cc(=O)n(C)c1=O
  0.43	-0.35
- COc1ccc(N2C(=NC(=O)CCCc3ccccc3)SC3CS(=O)(=O)CC32)cc1 (stereo not given)
  0.86	-0.09
- Nn1c(SCC(=O)NCCN2C(=O)CSC2=O)nnc1-c1ccc(OC(F)F)cc1
  0.05	1.6
- COc1ccc(C(=O)C2CCCN(S(=O)(=O)c3ccccc3F)C2)c(C)c1 (stereo not given)
  0.02	-0.26
- Cc1ccc(NC(=O)C2CCN(S(=O)(=O)c3ccc4c(c3)OCCCO4)CC2)nc1
  1.2	0.04
- Cc1cccc(C(=O)NCCc2n[nH]c(=S)n2C)c1
  3.9	-0.83
- O=C(NCCc1cccnc1)C1CCC(=O)N(CCc2cccc(F)c2)C1 (stereo not given)
  0.01	-1.1
- COc1cccc(COC(=O)C2CCN(S(=O)(=O)c3ccc(C)cc3)CC2)c1OC
  0.25	-0.6
- CC(NC(=O)c1ccc(-c2cc(C(F)(F)F)ccc2Cl)o1)c1ccccc1 (stereo not given)
  0.26	-1.3
- CC(C)(C)c1cnnn1-c1ccc([N+](=O)[O-])cc1
  1.1	0.32
- Cc1ccc(/C=N/N=C2/NC(=O)C(CC(=O)Nc3ccccc3)S2)o1 (stereo not given)
  0.51	-0.24
- COc1ccc(-c2nc(N)ncc2-c2ccccc2)c(O)c1
  1	0.51
- Cc1cc(C)cc(-n2cc[nH]c2=S)c1
  0.12	-0.36
- CCOC(=O)CC1(CC(=O)OCC)NC(=O)c2c(C)sc(C(=O)OCC)c2N1
  0.05	0.3
- COC(C/C=C\[C@H](O)COCc1ccccc1)OC
  0.67	-0.43
- O=C(COC(=O)CCc1nc2ccccc2c(=O)[nH]1)Nc1ccc(N2CCOCC2)cc1
  0.4	0.63
- CCC(=O)NC(c1cccc([N+](=O)[O-])c1)c1c(OC(C)=O)ccc2ccccc12 (stereo not given)
  0.12	0.74
- CCOC(=O)CNC(=O)N1CCCC(CCC(=O)NCc2ccc(F)c(F)c2)C1 (stereo not given)
  0.27	-0.48
- O=C(Nc1ccc(NC(=O)c2cccs2)cc1)c1ccco1
  1.1	-0.55
- CC(=O)Nc1cccc(C(=O)OCN2C(=O)c3ccccc3C2=O)c1
  1.3	1.9
- CCOC(=O)N1CCN(C(=O)CN2C(=O)NC(c3ccccc3)(c3ccccc3)C2=O)CC1
  0.05	-1.1
- COC(=O)CN(n1cnnc1)S(=O)(=O)c1ccccc1
  0.53	0.75
- Cc1ccc2oc(C(=O)Nc3ccc(S(=O)(=O)Nc4onc(C)c4C)cc3)c(C)c2c1
  1.1	-0.01
- Fc1ccc(-c2ccc(Nc3cccc(F)c3)nn2)cc1
  1	-0.38
- Cn1nc(-c2ccc(OCC(N)=O)cc2)c2ccccc2c1=O
  1.2	-0.05
- CN(CC(=O)Nc1c(Cl)cccc1Cl)C(=O)c1ccc(-n2cncn2)c([N+](=O)[O-])c1
  0.09	1.3
- Cc1ccc(OCCN(C)C(=O)CC2C(=O)NCCN2CC(C)(C)C)cc1 (stereo not given)
  0.15	-1.2
- Cc1cc(OCC(O)CNC(C)c2ccccc2)ccc1C(C)C (stereo not given)
  3.9	-0.47
- CCc1nc(C(N)=O)c2[nH]c(=O)n(-c3ccc(OC)cc3OC)c2n1
  0.48	1.4
- O=C(c1cc2cc(F)ccc2[nH]1)N1CCc2ccccc21
  1.3	-0.99
- O=C(CSc1nnc(-c2cccs2)n1-c1cccc(Cl)c1)c1cccc2c1OCCO2
  0.02	1.3
- NC(=O)CNc1ncc(C(F)(F)F)cc1Cl
  2.2	0.02
- O=C(NCCc1cccc(Cl)c1)C1CCC(=O)N(Cc2ccc(Cl)cc2)C1 (stereo not given)
  0.07	0.33
- CC1CCN(c2c([N+](=O)[O-])c(=O)oc3ccccc23)CC1
  0.08	0.34
- O=C(O)C1C2C=CC(C2)C1C(=O)NCCc1ccccc1 (stereo not given)
  1.3	-0.33
- CCOC(=O)c1c(C)n(-c2ccc(OC)cc2)c2ccc(O)c(CN(C)C)c12
  0.95	-1.8
- O=C(CC1SC(=Nc2ccccc2)N(Cc2ccccn2)C1=O)Nc1ccc(Br)cc1 (stereo not given)
  0.72	-1.9
- CCOc1ccc(CCNC(=O)COC(=O)c2ccco2)cc1OCC
  1.4	-1.3
- COc1ccc(-c2nnc(SCC(=O)Nc3ccc(Cl)cc3)n2C)cc1
  1.7	0.31
- COc1cc(OC)c(C(=O)OCC(=O)Nc2cc(C)on2)cc1OC
  1.5	-0.22
- Cc1ccc(C(=O)CC(=O)c2ccccc2)cc1
  1.3	-2
- CC/C(=N/OC(=O)c1cccc(C)c1)C(=O)c1cccs1
  0.51	0.12
- COC(=O)c1ccccc1N1C(=O)C2C(C1=O)C1C=CC2C12CC2 (stereo not given)
  1.1	0.06
- Cc1ccc(C(=O)N/C(=C/c2cccnc2)C(=O)O)cc1
  0.31	1.4
- CCOc1ccc(NC(=O)C(C)C(Cc2ccc(C)cc2)C(=O)O)cc1 (stereo not given)
  0.01	-0.41
- CC1(c2nnc(Cc3ccccc3)o2)CC(c2cccc(F)c2)=NO1 (stereo not given)
  0.35	-1.1
- CCOC(=O)C1=C(C)NC(=O)C(C#N)C1c1ccncc1 (stereo not given)
  1.4	-1.9

A draw from above in order of SMILES length, lowest first:
Screens in order: KCNQ2 pot	KCNQ2 pot baseline
- Cc1cc(C(F)F)n2ncc(C(=O)N3CCc4ccccc4C3)c2n1
  0.89	-1.3
- CC1CCN(c2c([N+](=O)[O-])c(=O)oc3ccccc23)CC1
  0.08	0.34
- COc1ccc(S(=O)(=O)N2CCCC(C(=O)NCc3ccccc3)C2)cc1 (stereo not given)
  0.02	1.1

The listing continues.
Screens in order: KCNQ2 pot	KCNQ2 pot baseline
- COCC(=O)Nc1nc2ccccc2s1
  1.1	-2.1
- O=C(COC(=O)c1cc(Br)ccc1O)NNC(=O)c1ccc([N+](=O)[O-])cc1
  0.56	0.08
- O=C(COC(=O)c1ccccc1-n1cnnn1)c1ccc(F)cc1
  0.46	0.03
- Cc1cccc(S(=O)Cc2ccc(C(=O)N3CCN(C(=O)c4ccco4)CC3)o2)c1 (stereo not given)
  1.2	-1.1
- O=C1CC(c2ccccc2)CC(=NCCO)/C1=C(\O)CCCN1C(=O)c2ccccc2C1=O (stereo not given)
  1.6	-0.07
- O=C(CCN1C(=O)/C(=C/c2ccc(F)cc2)SC1=S)NNC(=O)c1ccncc1
  0.44	-3.2
- Cc1ccc(CN(Cc2ccco2)C(=S)NCC(=O)NC2CC2)cc1
  0.3	-0.15
- COc1ccc(C(=O)NCCC(=O)N2CCC3(CC2)NCCc2[nH]cnc23)cc1
  0.52	1.5
- COc1ccccc1CNCc1ccc(OC)c2ccccc12
  0.16	0.96
- CCOC(=O)c1c(S(=O)(=O)Nc2ccc(C)c(F)c2)c(C)n(C)c1C
  0.03	-1.9
- COc1cccc(Nc2nc(-c3sc(C)nc3C)cs2)c1
  0.06	0.02
- COc1ccc(-n2c(=S)[nH]c3cc(C(=O)NCCCN4CCOCC4)ccc3c2=O)cc1OC
  0.68	-0.04
- COc1ccccc1NC(=O)c1cc2ccc(O)cc2o/c1=N\O
  0.03	0.92
- Clc1ccc(-c2csc3ncnc(NCCN4CCOCC4)c23)cc1
  0.47	-0.57
- O=C(c1ccc(NS(=O)(=O)c2ccc3c(c2)OCCO3)cc1)N1CCCCC1
  0.63	0.72
- Cc1cc(C)c(S(N)(=O)=O)c(C)c1N(C)S(=O)(=O)c1ccccc1
  2.3	-0.27
- CC(C)(C)OC(=O)CNC(=O)c1nc[nH]c1C(=O)N1CCN(C(=O)OC(C)(C)C)CC1
  0.14	-0.78
